Screening results (PubChem)
CBX7 inh: CBX7 chromodomain binding inhibitors, primary screen, biochemical, AlphaScreen; AlphaScreen His6-CBX7 / biotin-H3K27me3 peptide binding; hits give low values; actives 1.1% (n = 66,000); normalised signal (fraction of DMSO) (no concentration beside the values); AID 1224903, 2016; Chromobox protein homolog 7 (Homo sapiens), O95931; in the data active means normalised signal below about 0.5;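 further: 100 nL library stock added to about 20 µL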
Target sequence (O95931 whole entry, looked up): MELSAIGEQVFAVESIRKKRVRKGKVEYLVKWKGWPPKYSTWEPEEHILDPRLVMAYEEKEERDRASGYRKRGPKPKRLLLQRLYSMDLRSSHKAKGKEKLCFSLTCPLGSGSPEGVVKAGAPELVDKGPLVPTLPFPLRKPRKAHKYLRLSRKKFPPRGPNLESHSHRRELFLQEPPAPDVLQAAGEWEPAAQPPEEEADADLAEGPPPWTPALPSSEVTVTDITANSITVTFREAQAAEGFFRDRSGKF
CBX7 inh z-score: further read-out of CBX7 inh, marked with its call; z-score; measured here: z-score of CBX7 signal; some inactives read as strong as hits; reference of the scale not given here;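 same signal on another scale; lower means less binding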
* hit, by the source's call.

molecule,CBX7 inh,CBX7 inh z-score
COCCCNC(=O)c1ccc2c(c1)ncn2-c1cc(OC)ccc1OC,1.1,1.7
Cc1ccc(CNC(=O)C2CCC(=O)N2Cc2ccccc2Cl)cc1 (stereo not drawn),0.99,-0.28
CC1CCCC(C)N1c1nnc(NC(=O)Nc2ccccc2Cl)s1 (stereo not drawn),1,0.15
Cc1ccc(NC(=O)CCc2nnc3ccc(N4CCN(C5CCCCC5)CC4)nn23)cc1C,1.1,0.93
CNC(=O)c1cc(-c2ccccn2)nc2ccc(S(=O)(=O)N3CCC(C)CC3)cc12,1,0.87
CCc1cccc(NC(=O)Cn2c(C(=O)OC)cc3ccsc32)c1,1,0.69
CC(C)CCn1c(COc2cccc3ccccc23)nc2ccccc21,1,2.3
Cc1nn(CC(=O)N2CCCCC2)c(=O)c2ccccc12,0.95,-1.8
Cc1noc(/C=C/c2cccs2)c1S(=O)(=O)N1CCC(C(=O)Nc2ccccc2F)CC1,0.92,-3.5
Cc1c(-c2ccccc2)nc2sc3c(c2c1N)CCCC3,0.47*,-5.6*
Cc1ccc(C)c(N2CCN(C(=O)Cn3nc(Cc4ccncc4)c4ccccc4c3=O)CC2)c1,1,0.018
CCc1ccc(NC(=O)CCc2c(C)nc3cc(-c4ccccc4)nn3c2C)cc1,0.9,-1.7
CCN(c1ccccc1)S(=O)(=O)c1ccc2[nH]cc(C(=O)N3CCOCC3)c(=O)c2c1,1,0.67
O=C(Cn1nc(-c2ccccc2)ccc1=O)NCc1ccc(F)cc1Cl,1.1,2.8
CCc1ccc(NC(=O)CCc2nc3ccccc3[nH]2)cc1,1,0.64

The list goes on; it opens with the five that closed the last part.
molecule,CBX7 inh,CBX7 inh z-score
Cc1ccc(C)c(N2CCN(C(=O)Cn3nc(Cc4ccncc4)c4ccccc4c3=O)CC2)c1,1,0.018
CCc1ccc(NC(=O)CCc2c(C)nc3cc(-c4ccccc4)nn3c2C)cc1,0.9,-1.7
CCN(c1ccccc1)S(=O)(=O)c1ccc2[nH]cc(C(=O)N3CCOCC3)c(=O)c2c1,1,0.67
O=C(Cn1nc(-c2ccccc2)ccc1=O)NCc1ccc(F)cc1Cl,1.1,2.8
CCc1ccc(NC(=O)CCc2nc3ccccc3[nH]2)cc1,1,0.64
Cc1ccc(N2C(=O)CN=C2Nc2nc(C)cc(C)n2)c(C)c1,1,0.16
CCCN1Cc2cccc(C(=O)Nc3ccc(C(C)C)cc3)c2C1=O,1,0.01
COc1ccc(-c2noc(CCC(=O)N(C)c3cc(C)ccc3C)n2)cc1,0.85,-3.3
CCC(=O)N1CCc2cc(S(=O)(=O)NCCC(=O)Nc3cccc(C(F)(F)F)c3)ccc21,1.1,1.8
O=C(O)CCS(=O)(=O)Cc1cccc(Cl)c1,1.2,2.1
COc1ccc(C2NC(C(=O)O)Cc3[nH]cnc32)cc1CSc1nc2ccccc2[nH]1 (stereo not drawn),0.5*,-12*
CCc1ccc2oc(-c3ccc(NC(=O)COc4ccc(C)c(C)c4)cc3)nc2c1,0.99,-0.11
Cc1ccc(C(=O)c2oc3ccccc3c2NC(=O)CN2CCN(C)CC2)cc1,1.1,0.83
COc1ccc(-c2noc(CCC(=O)N3CCN(C4CCCCC4)CC3)n2)cc1,0.86,-2
CC(C)NC(=O)C1(S(=O)(=O)c2ccc(Cl)cc2)CC1,1.1,1.5
CCCOc1ccc(C2C(=O)N(C3CCCCC3)CC(=O)N2CCCOCC)cc1OC (stereo not drawn),1,0.043
Cc1ccc(C(=O)NCc2cc(-c3nn(C)c(=O)c4ccccc34)ccc2C)cc1,0.77,-2.5
Cc1cc(NC(=O)c2cnn(-c3ccccc3)c2-n2cccc2)no1,1.1,2.9
COc1ccccc1-c1cc2nc(C)c(CCC(=O)Nc3cc(C)ccc3C)c(C)n2n1,0.98,-0.54
COc1ccccc1NS(=O)(=O)c1ccc2c(c1)CCN2C(=O)C1CC1,0.98,-0.47

(next part)
molecule,CBX7 inh,CBX7 inh z-score
COc1ccc(C(=O)Nc2ccc(-c3nnc(-c4ccccc4)o3)cc2)cc1OC,0.96,-0.48
Cc1ccc(-c2nc(CS(=O)(=O)CC(=O)NCCCOC(C)C)c(C)o2)cc1,0.98,-0.22
Cn1c(C(=O)N2CCC(C(=O)NCCCN3CCOCC3)CC2)cc2sccc21,1,0.62
Cc1c(NC(=O)c2cccc(Cl)c2)cccc1-c1nc2ncccc2o1,1.1,0.093
O=C(Nc1nnc(-c2ccc(Cl)cc2Cl)s1)c1ccc(F)cc1,1,0.84
CC(C)OCCCNC(=O)CN1C(=O)CSc2ccc(S(=O)(=O)N3CCOCC3)cc21,1,-0.032
O=C(Nc1nc(-c2ccc(-c3ccccc3)cc2)cs1)c1cc2ccccc2oc1=O,1.1,1.7
Cc1nc2cc(-c3ccccc3)nn2c(C)c1CCC(=O)NC1CCCCCC1,0.96,-0.44
COc1ccc(CNC(=O)Nc2ccc3c(c2)N(C)C(=O)CS3)cc1,0.93,-1.9
Cn1cc(CC(=O)NC2CCCCC2)c2ccccc21,0.83,-2.5
CCOC(=O)c1ccc(Nc2ncnc3ccc(Br)cc23)cc1,1,-0.075
CCOc1ccccc1NC(=O)CSc1nnc(Cc2cc(=O)[nH]c(=O)[nH]2)n1-c1ccccc1,1,0.43
O=S(=O)(c1cccc(C(F)(F)F)c1)N(CCCN1CCOCC1)Cc1cccs1,0.68,-3.5
Cc1ccc(N2C(=O)CC(Nc3ccc(N4CCOCC4)cc3)C2=O)cc1 (stereo not drawn),0.94,-1.5
COc1ccc(-c2ccc(Cc3nc(-c4ccc(C)cc4)no3)cc2)cc1,0.99,-0.072

Later entries
molecule,CBX7 inh,CBX7 inh z-score
O=C(Nc1ccccc1F)C1CCCN1S(=O)(=O)c1cccc2cccnc12 (stereo not drawn),0.97,-0.91
COc1ccccc1-c1nc2ccccc2nc1-c1ccccc1,1.1,1.6
Cc1ccc(S(=O)(=O)N2CCN(c3nc(NC(C)c4ccccc4)c4ccccc4n3)CC2)cc1 (stereo not drawn),0.8,-3
N#Cc1c2n(c3c(=O)n(CC(=O)c4ccccc4)cnc13)CCCC2,0.94,-0.65
CCN1CCN(C(=O)c2ccc3c(c2)N(Cc2ccccc2)C(=O)c2ccccc2S3(=O)=O)CC1,1,0.79
CCOc1cc2c(cc1OCC)C(c1c(F)cccc1Cl)CC(=O)N2 (stereo not drawn),0.99,-0.062
CCCn1c(COc2ccccc2OC)nc2ccccc21,1.1,0.75
Nc1ccc2nc(SCc3ccccc3Cl)sc2c1,0.97,-0.58
COc1cc2c(C(=O)N3CCN(c4ccc(C)cc4)C(C)C3)cn(CC(C)C)c(=O)c2cc1OC (stereo not drawn),0.67,-2.6
O=C(Nc1sc2c(c1C(=O)N1CCCCC1)CCCC2)c1ccccc1F,0.85,-1.6
COC(=O)c1ccc(NS(=O)(=O)c2ccc3c(c2)CCN3C(C)=O)cc1,1.3,3.3
CC(C)c1ccc(Nc2cc(C(=O)NCc3cccs3)c3ccccc3n2)cc1,1,0.044
Cc1ccc(Cn2nnc3c(=O)n(CC(=O)NCc4ccc5c(c4)OCO5)cnc32)cc1,0.88,-1.9
CCN(CC)CCNC(=O)c1cc(-c2cccnc2)nc2ccc(S(=O)(=O)N3CCC(C)CC3)cc12,0.91,-0.98
COc1ccc(CNC(=O)CN=C2NS(=O)(=O)C(c3ccc(C)cc3)=C2C)cc1,1,1

Following part
molecule,CBX7 inh,CBX7 inh z-score
Cc1cc(C)cc(N2CC(c3nc4ccccc4n3Cc3ccccc3)CC2=O)c1 (stereo not drawn),0.93,-0.44
CCn1c(/C=C/c2ccc(OC)cc2)nc2ccccc21,1.3,3
O=C(Nc1ccc(S(=O)(=O)Nc2nccs2)cc1)C1(c2ccc(Cl)cc2)CCCC1,0.83,-2.1
O=C(O)c1cc(-c2ccc(Cl)cc2)nc2ccccc12,1.2,3.7
O=C(O)C(CO)Nc1ncnc2ccccc12 (stereo not drawn),1,0.22
CC(=O)N1CCc2cc(Br)cc(S(=O)(=O)NCCN3CCCC3)c21,1,0.79
CC(=O)Nc1ccccc1-c1nc2ccccc2nc1OCc1ccc(Cl)cc1,0.99,-0.13
CC(=O)OCC1OC2OC(C)(C)OC2C2OC(C)(C)OC12 (stereo not drawn),1.1,0.81
COCC(=O)Nc1ccc2nc(N3CCCCC3)cc(C)c2c1,1.1,2.8
CCCN1CCCc2cc(CN(C(=O)Nc3ccc(Cl)cc3)C(C)CC)ccc21 (stereo not drawn),0.5,-7.8
Cc1nc(Nc2nc3ccccc3o2)ncc1C(=O)Nc1ccc(F)cc1,1,0.1
COc1ccc2oc(C(=O)c3ccc(F)cc3)c(NC(=O)CN3CCCCC3)c2c1,0.97,-1
COc1ccc(-c2c(C)nn3c(N4CCC(C(=O)O)CC4)cc(C)nc23)cc1OC,0.94,-1.3
O=C(c1cc2c(s1)-c1ccccc1OC2)N1CCN(c2ccccc2)CC1,0.96,-1
COc1ccc(Cn2c(=O)c3cccnc3n(CC(=O)Nc3ccc(C)c(F)c3)c2=O)cc1,1,0.09

Remaining list, next part.
molecule,CBX7 inh,CBX7 inh z-score
CC(C)(C)c1ccc(-c2nc(-c3ccccc3)no2)cc1,1.2,5.4
COc1ccccc1N(CC(O)Cn1c(C)nc2ccccc21)S(=O)(=O)c1ccccc1 (stereo not drawn),0.99,-0.31
COc1cccc(-n2ccnc2SCC(=O)Nc2nccs2)c1,1,0.38
COc1cc2c(cc1OC)C(C(=O)NC1CCCC1)C1c3ccccc3CCN1C2=O (stereo not drawn),1.1,0.082
c1ccc2c(NC3CCCCC3)nc(-c3ccncc3)nc2c1,0.81,-0.19
Cc1ccc2c(c1)N(CCCC(=O)NCC1CCCO1)C(=O)CO2 (stereo not drawn),1.2,4.6
CC1=Nc2cc(C(=O)NCCN3CCCCC3C)ccc2Sc2ccc(Cl)cc21 (stereo not drawn),0.88,-1.9
CN(CCNC(=O)CN1C(=O)CCSc2ccccc21)C1CCCCC1,0.97,-1.5
Cc1[nH]cnc1C(O)(CCc1ccccc1)CCc1ccccc1,0.7,-0.85
CC1=C(C#N)C(c2ccc(O)cc2)C2=C(CCCC2=O)N1 (stereo not drawn),0.95,-0.99
CC1CCCN(S(=O)(=O)c2ccc(C(=O)Nc3nnc(-c4ccccc4Cl)o3)cc2)C1 (stereo not drawn),0.01*,-17*
O=C(Nc1cccnc1)c1cc(-c2cccs2)nc2ccccc12,1,0.69
COc1ccccc1NC(=O)c1cnc(Nc2ccccc2OC)c2ccccc12,1.6,16
COc1cc(Cl)c(C)cc1NS(=O)(=O)c1c(C)noc1C,1,1.8
O=C(Nc1cnn(Cc2ccc(F)cc2)c1)c1cc(-c2ccc(Br)cc2)on1,1.1,2.1

Next section:
molecule,CBX7 inh,CBX7 inh z-score
CCN1CCN(c2cc(C)c3cc(NC(=O)CCC(=O)Nc4cccc(Cl)c4)ccc3n2)CC1,1,1.6
CCCN(C(=O)Cc1c(C(=O)O)[nH]c2ccc(Cl)cc12)c1cccc(C)c1,1.1,1.1
O=C1CCc2cc(S(=O)(=O)NCCC(=O)NC3CCCC3)ccc2N1,0.97,-1.4
COc1ccc(CNS(=O)(=O)c2ccc3c(c2)CCN3C(=O)C2CCC2)cc1,1,0.54
Cc1ccc2c(c1)Oc1cc([N+](=O)[O-])cc(Oc3ccccc3C)c1C(=O)N2,0.049*,-17*
O=C(CCN1C(=O)COc2ccccc21)NCCCN1CCN(c2ccc(F)cc2)CC1,0.98,-0.71
O=C(Nc1cc(F)ccc1F)C1CCCN(S(=O)(=O)c2cccs2)C1 (stereo not drawn),1,0.019
CCOc1cc2c(cc1OCC)C(c1ccccc1C)NCC2 (stereo not drawn),1.1,1.9
Cc1cccc(N2CCN(C(=O)c3csc4c3CCCCC4)CC2C)c1 (stereo not drawn),0.97,-0.98
COc1ccc(C(=O)Nc2ccc3oc(-c4cc(Br)ccc4Cl)nc3c2)cc1,0.96,-1.1
CCCCNC(=O)C1(S(=O)(=O)c2ccc(Cl)cc2)CC1,1.1,1.6
O=C(CC1C(=O)N(c2ccccc2)C(=O)N1Cc1ccc(F)cc1)Nc1ccc(F)cc1 (stereo not drawn),1,1.2
O=C(CCCC1=NS(=O)(=O)c2ccccc2N1)NCc1ccc(Cl)cc1,1,0.18
CN(c1ccccc1)S(=O)(=O)c1ccc(C(=O)Nc2nnc(-c3ccc(Cl)s3)o2)cc1,0.39*,-6.9*
Cc1oc(-c2cccs2)nc1CN1CCCC(C(=O)NCc2ccc(F)cc2)C1 (stereo not drawn),1,0.51

Quoted from above, 5 compounds:
molecule,CBX7 inh,CBX7 inh z-score
CCCCNC(=O)C1(S(=O)(=O)c2ccc(Cl)cc2)CC1,1.1,1.6
O=C(CC1C(=O)N(c2ccccc2)C(=O)N1Cc1ccc(F)cc1)Nc1ccc(F)cc1 (stereo not drawn),1,1.2
O=C(CCCC1=NS(=O)(=O)c2ccccc2N1)NCc1ccc(Cl)cc1,1,0.18
CN(c1ccccc1)S(=O)(=O)c1ccc(C(=O)Nc2nnc(-c3ccc(Cl)s3)o2)cc1,0.39*,-6.9*
Cc1oc(-c2cccs2)nc1CN1CCCC(C(=O)NCc2ccc(F)cc2)C1 (stereo not drawn),1,0.51

Next section
molecule,CBX7 inh,CBX7 inh z-score
CCCNC(=O)c1ccc2c(c1)N(Cc1cccc(C)c1)C(=O)c1ccccc1S2,1.1,0.085
CCN(CC)CCCC(C)Nc1nc(C)nc2cc(Cl)ccc12 (stereo not drawn),1,1.6
CCOc1ccc(NC(=O)C23C[C@H]4C[C@@H](C2)CC(n2nnc(C)n2)(C4)C3)cc1,0.99,-0.29
CCOc1ccc2nc(N3CCCC(C(=O)NCCN4CCCCCC4)C3)sc2c1 (stereo not drawn),0.97,-0.91
COc1ccc(-c2ncnn2-c2cccc(C(F)(F)F)c2)cc1OC,0.99,-0.28

Not all compounds are listed (hit frequency here may not be typical).
